Compound activity: PubChem BioAssay, National Center for Advancing Translational Sciences (NCATS)
Rango complex inh – prevents formation of the Rango-importin beta complex; Potency, µM (titrated, usually from 92.2 µM), for inactives: at the top dose inhibition of complex formation; AID 540263; 0.031% of 340,000 active; Q14974; Rango CFP/YFP FRET sensor + importin beta, 45 min; active = rising FRET ratio curve, often small or poorly fitted; inconclusive = mostly compound fluorescence or quenching in the first reads; inactive = flat curves in all reads;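 further: potency means the concentration at half of the fitted maximal effect; 0% = DMSO wells and 100% = buffer wells lacking importin beta; nearly all actives have a fitted effect of over 15% in size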
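Inhibition scored from the CFP 486 nm/YFP 530 nm FRET ratio 45 min after adding 0.125 microM importin beta to 50 nM Rango biosensor preincubated 5 min with compound (room temperature, PBS with DTT, Tween-20, BSA). No-importin wells as positive control.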
miR-21 reporter – raises the signal of a miR-21 reporter; HeLa miR-21 FLuc reporter, luciferase, 48 h; Potency, µM (doses to about 38.3 µM), for the others: at the highest dose reporter change, positive = more light; 340,000 tested, under 10 active; active = well fitted rising curve with a large enough effect; inconclusive = small, poorly fitted or top-dose-only effect; inactive = no such curve, though single readings can be large or run the other way;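 further: % of control where 0% means no effect; miR-21 action dims this reporter so a rising signal means less miR-21 action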
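Compounds were titrated across several concentrations (up to approximately 40 uM) and incubated 48 hours with HeLa miR-21-FLuc reporter cells (miR-21 target sequence downstream of FLuc, endogenous miR-21). Readout was firefly luciferase luminescence after lytic detection reagent.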
Rango dissoc inh – prevents RanGTP from dissociating the Rango-importin beta complex; Biochemical FRET Rango-importin beta, RanGTP-induced dissociation; Potency, µM (series often up to 46.1 µM), inactives show at the top dose activity change, negative = inhibition; 0.071% of 340,000 active; AID 540253; active means falling FRET ratio curve, often poorly fitted, with flat reads before Ran was added; inconclusive means other falling curves, or compound fluorescence or quenching; inactive means flat or rising ratio curve;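 further: potency means the concentration at half of the fitted maximal effect; % of control where 0% means no effect; nearly all actives have a fitted effect of over 45% in size; -100% = wells without RanGTP and RCC1; the record marks most hits as doubtful in a second field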
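Rango (0.1 uM)–importin beta (0.25 uM) complex; RanGTP-RCC1 trigger; 45 min RT; CFP/YFP FRET read.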
GLA inh pH 4.5 – blocks human alpha-galactosidase A at pH 4.5 | P06280 | purified enzyme, 4-MU-alpha-Gal fluorescence, pH 4.5 | activity change, negative = inhibition, % at 105 µM | 230,000 tested, under 10 active; inconclusive = small, poorly fitted or top-dose-only inhibition, or a rising curve; inactive = flat fitted curve, though single readings scatter; no compound was filed as active;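 further: 0% = full activity with enzyme and -100% = basal without enzyme; dose as in the result columns while the protocol names 77 µM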
Target sequence (P06280 whole entry, looked up): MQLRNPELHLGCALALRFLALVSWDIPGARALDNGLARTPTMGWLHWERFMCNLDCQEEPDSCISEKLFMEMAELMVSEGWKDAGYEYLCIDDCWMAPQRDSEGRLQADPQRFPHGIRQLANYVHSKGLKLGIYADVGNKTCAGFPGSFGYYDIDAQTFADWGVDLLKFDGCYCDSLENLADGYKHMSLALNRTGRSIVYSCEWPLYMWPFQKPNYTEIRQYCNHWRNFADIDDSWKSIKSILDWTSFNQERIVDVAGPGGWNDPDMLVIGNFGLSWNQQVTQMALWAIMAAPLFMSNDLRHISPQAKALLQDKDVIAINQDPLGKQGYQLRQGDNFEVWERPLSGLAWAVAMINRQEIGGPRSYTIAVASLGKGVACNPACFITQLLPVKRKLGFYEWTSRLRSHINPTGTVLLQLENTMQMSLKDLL
Numbers without * were called inactive; ? = inconclusive; nt = not tested or not shown; & = joins results of further samples; [ ] = remark or other dose. The list is partial. The share of hits here may be higher or lower than overall.

Rango complex inh,miR-21 reporter,Rango dissoc inh,structure,GLA inh pH 4.5
-1.8%,nt,?,O=c1[nH]nnc2c1cnn2-c1ccccc1,nt
?,nt,?,CCc1cc2c(COC(=O)CCNS(=O)(=O)c3cccc(C(F)(F)F)c3)cc(=O)oc2cc1O,nt
-1.0%,-1%,0%,Cc1c(C=NCCOCc2ccccc2)cnn1C,3
0.1%,2%,-4%,CC(=O)Nc1ccc(NS(=O)(=O)c2cccc3ccccc23)cc1,4
-3.3%,-7%,-13%,Cc1cccc(Cc2cnc(NC(=O)C3=NCCN3)s2)c1,9
0.9%,-44%,2%,CN(Cc1nc(-c2ccccc2)no1)C1CCOCC1,1
0.3%,22%,-13%,CCCC/C(O)=C1\C(=O)CC(C)(C)CC1=Nc1ccc(N)cc1,7
0.1%,-4%,-12%,COc1ccc(C(=O)NNC2=CC(=O)CC(C)(C)C2)cc1OC,7
-1.1%,1%,-7%,CN(C)S(=O)(=O)c1ccc(C(=O)NCC2(N3CCCCC3)CCCCC2)cc1,-1
4.0%,-58%,2%,Cc1ccccc1-c1nc(-c2ccc(NC(=O)c3ccc(Br)o3)cc2)no1,2
-0.2%,-61%,-8%,Cc1nnc(OCc2nc3ccccc3n2C)c2ccccc12,-8
-0.7%,1%,-8%,COc1ccc(C(c2nnnn2CS(=O)(=O)c2ccc(C)cc2)N2CCN(c3ncccn3)CC2)cc1 (stereo not drawn),-9
0.6%,-1%,-3%,COc1cccc(CN2CCN(C3CSCCSC3)CC2CCO)c1 (stereo not drawn),-1
-0.3%,-6%,-11%,Cc1ccc(-c2nnn(CC(=O)NCC3CC3)n2)o1,-19
-1.1%,-3%,-11%,CCNS(=O)(=O)c1ccc(OC)c(C(=O)NC2CCCCC2)c1,2
6.4%,-51%,20%,N#CCCSc1ncnc2c1oc1ccccc12,4
1.2%,29%,0%,CCOc1ncccc1C(=O)N1CCN(c2cccc(C)c2C)CC1,4
-3.2%,1%,8%,CCOC(=O)C1CCN(CC(=O)N2C(C)CCCC2C)CC1 (stereo not drawn),4
nt,1%,nt,CCOC(=O)N1CCC(N2C(=O)c3ccccc3C2Nc2ccc(S(=O)(=O)N3CCCCC3)cc2)CC1 (stereo not drawn),-1[21.1 µM]
?,15%,?,COc1cc(/C=N/NC(=O)c2ccc3nc[nH]c3c2)cc(OC)c1OC,-25
-1.7%,-3%,16%,COC(=O)C1CCN(S(=O)(=O)c2cn(C)c(=O)n(C)c2=O)CC1,-3
1.4%,11%&12%,12%,CCc1ccc(NC(=O)C2CCCN(S(=O)(=O)c3ccc4c(c3)CCCN4C(C)=O)C2)cc1 (stereo not drawn),nt
5.8%,-5%,4%,O=C(NCC1CCCO1)C1CCN(C(=O)c2ccc(Br)cc2)CC1 (stereo not drawn),1
-0.6%,-1%,-13%,O=C(CSc1nnc(-c2cccnc2)n1C1CCCCC1)NC1CCCCC1,-9
2.5%,-26%,-10%,Cc1ccc(NC(=O)CSc2nccn2Cc2ccco2)c(C)c1,nt
-2.1%,-4%,2%,CCCCC(=O)NC(Nc1cc(C)ccn1)(C(=O)OCC)C(F)(F)F (stereo not drawn),0
-2.1%,-10%,0%,CC1=NN(C(=O)c2ccccc2F)C(O)(c2ccc(Cl)cc2)C1 (stereo not drawn),nt
4.9%,nt,?,COc1cc(C(=O)N2CCN(CCCc3ccccc3)CC2)cc(OC)c1OC,nt
-3.7%,6%,7%,O=C(C1=C[C@@H](c2coc3ccccc3c2=O)C[C@@H](OCCCCO)O1)N1CCN(Cc2ccc3c(c2)OCO3)CC1,-8
0.9%,nt,-5%,O=S(=O)(Nc1ccccc1)c1ccc(S(=O)(=O)N2CCCC2)cc1,nt
3.6%,-20%,-10%,COc1cccc(C(=O)Nc2ccc(NC(=O)c3ccco3)c(Cl)c2)c1,2
?,3%,9%,COC(=O)c1cc(NC(=O)c2ccc(OC)cc2)c(=O)oc1C,-14
nt,-57%,nt,Cc1[nH]n(-c2ccccc2)c(=O)c1C=NCc1ccco1,10
0.6%,-2%,1%,COCCCNC(=O)COc1ccc(S(=O)(=O)Nc2ccccc2)cc1,-8
7.7%,nt,-10%,CC(C)=CCc1c2c(c3occ(-c4ccc(O)c(O)c4)c(=O)c3c1O)C=CC(C)(C)O2,-8
?,0%,?,CCOc1ccc(N2C(=O)S/C(=C\c3ccc(O)c(OCC)c3)C2=O)cc1,-19
3.6%,-3%,-6%,Cc1ccccc1NC(=O)c1ccc(CN2CCC(Cc3ccccc3)CC2)cc1,-8
-3.3%,-8%,-5%,COC(=O)C(C)NC(=O)C12CC3CC(CC(C3)C1)C2 (stereo not drawn),4
2.4%,-6%,0%,O=C(c1cc(Cl)cc(Cl)c1)N1CCOCC1,0
2.4%,nt,-14%,COc1ccc(NC(=O)CN(C)C(=O)CCCc2c[nH]c3ccccc23)cc1,nt
-0.9%,-3%,-7%,Cc1cc(NC(=O)C2CC(=O)N(c3ccccc3)C2)no1 (stereo not drawn),2
-0.9%,11%,0%,O=C(Nc1ccccc1SCC1CSc2nc3ccccc3c(=O)n21)c1ccccc1 (stereo not drawn),1
-0.1%,nt,-7%,COCCN(C(=O)COC(=O)c1ccc(Cl)s1)c1c(N)n(Cc2ccccc2)c(=O)[nH]c1=O,nt
-0.7%,7%,-11%,NC(=S)N/N=C/c1ccccc1OC(=O)/C=C/c1ccccc1,nt
0.5%,24%,15%,COc1ccc(OC)c(C(C)NC(=O)c2ccco2)c1 (stereo not drawn),4
-1.4%,nt,-3%,COc1ccc(C=CC(C)=NNC(=O)c2ccncc2)cc1,nt
0.0%,nt,-1%,Cc1nn(-c2ccccc2)c(C)c1C(=O)OCC(=O)Nc1ccccc1,nt
-0.8%,-2%,-18%,CC(C)NS(=O)(=O)c1ccc(CCC(=O)NCc2ccco2)cc1,3
2.6%,-3%,-9%,CNC(=O)c1ccccc1Sc1cccc2cccc(C(=O)O)c12,nt
?,11%,-21%,COc1ccccc1N=C1SC(C(=O)Nc2cccc(Cl)c2Cl)C(N)=C1C(N)=O (stereo not drawn),-6

Continued:
Rango complex inh,miR-21 reporter,Rango dissoc inh,structure,GLA inh pH 4.5
3.0%,13%,-4%,O=c1[nH]c2ccc(Cl)cc2c(-c2ccccc2)c1SC(=S)N1CCOCC1,-21
?,0%,-11%,CCNC(=O)/C(C#N)=C/c1c(N2CCN(c3cccc(Cl)c3)CC2)nc2c(C)cccn2c1=O,nt
-1.3%,0%,10%,Cc1cccn2c(=O)c(C(=O)NC3CCCCC3)c(O)nc12,nt
-3.2%,-10%,1%,COc1ccc(CCn2c(NCCCN3CCOCC3)nc3c2c(=O)[nH]c(=O)n3C)cc1,-9
-1.3%,2%,30%,COc1cccc(-c2cc(C(=O)NCc3ccco3)c3ccccc3n2)c1,nt
2.4%,nt,22%,Cc1nnc(SC(C)C(=O)NC2CCCCC2C)s1 (stereo not drawn),nt
4.4%,-1%,-11%,COCCN(C(=O)c1ccccc1OC1CCN(S(C)(=O)=O)CC1)C(C)C,7
4.9%,6%,15%,Cn1c(=O)c2cc(S(=O)(=O)NCCC(=O)NCCc3ccc(Cl)cc3)ccc2n(C)c1=O,0
1.4%,-3%,-3%,Cc1cc(C)c2nc(N3CCC(C(=O)NCCN4CCOCC4)CC3)sc2c1,nt
-3.0%,2%,3%,O=C(COC(=O)c1cnc(Cl)c(Cl)c1)NCc1ccc2c(c1)OCO2,-6
1.7%,nt,1%,O=C(O)C1=CC[C@@H](c2ccc(Cl)cc2)N(S(=O)(=O)c2ccc(Cl)cc2)[C@H]1c1cccc(Cl)c1,nt
-1.9%,-62%,-6%,CCn1cnc2cc(NCc3ccc(Br)cc3)ccc21,nt
0.1%,nt,-12%,C[C@@H](NC(=O)c1nc[nH]c1C(=O)N1CCN(C(=O)OC(C)(C)C)CC1)c1ccccc1,nt
0.0%,-3%,5%,CCNC(=S)N/N=C/c1ccc(OCCOc2ccccc2C)cc1,0
-1.3%,0%,3%,COC(=O)[C@@H](NC(=O)NCc1ccccc1Cl)C(C)C,9
-6.5%,nt,-19%,COc1nc(-c2ccccc2)ccc1-c1noc(-c2cccs2)n1,nt
-0.8%,3%,10%,Cc1cc(N2C(=O)c3ccc(C(=O)Nc4ccc(CC(=O)O)cc4)cc3C2=O)no1,nt
-2.0%,0%,3%,CC1CC(O)(Cc2ccccc2)C(C)CN1C (stereo not drawn),-9
6.4%,-1%,3%,Cc1cnc(C(=O)OCC(=O)NCc2ccc3c(c2)OCO3)cn1,-3
1.2%,nt,-1%,Cc1cc(=O)oc2cc(NC(=O)C(C)Oc3cccc(Cl)c3)ccc12 (stereo not drawn),nt
12%,-1%,32%,O=C(O)CN=C(NS(=O)(=O)c1ccccc1)c1ccccc1,6
nt,0%,nt,O=[N+]([O-])c1cccc(-c2nc(N3CCOCC3)c3ccccc3n2)c1,5
-1.2%,2%,9%,Cc1cc(C(=O)Nc2cccc3ccccc23)n(-c2ccccc2)n1,-2
-3.5%,nt,-9%,O=C(COc1ccc2ccc(=O)oc2c1)Nc1cccc(S(=O)(=O)N2CCCCC2)c1,nt
-0.7%,-1%,16%,COc1ccc(C)cc1S(=O)(=O)N1CCN(Cc2ccccc2)CC1,0

Six compounds out of the list, ordered by heavy-atom count, descending.
Rango complex inh,miR-21 reporter,Rango dissoc inh,structure,GLA inh pH 4.5
4.9%,6%,15%,Cn1c(=O)c2cc(S(=O)(=O)NCCC(=O)NCCc3ccc(Cl)cc3)ccc2n(C)c1=O,0
4.4%,-1%,-11%,COCCN(C(=O)c1ccccc1OC1CCN(S(C)(=O)=O)CC1)C(C)C,7
-1.2%,2%,9%,Cc1cc(C(=O)Nc2cccc3ccccc23)n(-c2ccccc2)n1,-2
6.4%,-1%,3%,Cc1cnc(C(=O)OCC(=O)NCc2ccc3c(c2)OCO3)cn1,-3
-1.3%,0%,3%,COC(=O)[C@@H](NC(=O)NCc1ccccc1Cl)C(C)C,9
-2.0%,0%,3%,CC1CC(O)(Cc2ccccc2)C(C)CN1C (stereo not drawn),-9

Further results follow.
Rango complex inh,miR-21 reporter,Rango dissoc inh,structure,GLA inh pH 4.5
-3.3%,-4%,13%,C/C(=N\S(=O)(=O)c1ccc(C)cc1)N1CCN(S(=O)(=O)c2ccccc2)C1C(C)C (stereo not drawn),-1
?,-19%,?,CCN1CCN(Cc2c(O)ccc3c2O/C(=C\c2ccc(C)cc2)C3=O)CC1,-28
-1.6%,0%&1%,8%,Cc1ccc(CCNC(=O)CN(c2cc(C)cc(C)c2)S(=O)(=O)c2c(C)noc2C)cc1,nt
5.0%,-1%,-2%,O=C(COC(=O)c1ccccc1)Nc1cc(Cl)ccc1Oc1ccccc1,-4
?,-4%,?,O=[N+]([O-])c1ccc(-c2cn3nc(-c4ccccc4)c(-c4ccccc4)nc3n2)cc1,3
0.3%,-8%,-16%,CCN(CCO)C(=S)Nc1cc(C(=O)OC)ccc1C(=O)OC,2
?,0%,?,Cc1cccn2c(=O)c3cc(C(=O)NC4CCCC4)c(=N)n(Cc4ccc(F)cc4)c3nc12,nt
-1.4%,nt,1%,O=C(O)c1cc(=O)c2ccccc2[nH]1,-14&-7&14&-1
-1.1%,-55%,3%,Cc1cccc(/C(N)=N/OC(=O)Cc2ccccc2)c1,5
0.3%,-3%,5%,CC1CC(C)CN(CCCNC(=O)c2ccc(CS(=O)(=O)Cc3cccc(Cl)c3)o2)C1 (stereo not drawn),nt
-3.7%,8%,14%,CC(=O)N1CCN(S(=O)(=O)c2ccc(S(=O)(=O)NC3CCCCC3)cc2)CC1,nt
4.7%,-4%,24%,Cc1ccccc1NS(=O)(=O)c1cc(C(=O)NCc2ccco2)ccc1C,-6
-0.5%,nt,1%,O=C(CSc1nc2[nH]ncc2c(=O)[nH]1)Nc1ccc(Cl)cc1,nt
-1.2%,2%,9%,COc1cc(C(=O)N2CCc3ccccc32)ccc1OCc1c(C)noc1C,5
-3.9%,5%,3%,Cn1c(=O)n(CC(N)=O)c(=O)c2c1nc(Br)n2Cc1ccccc1,nt
